From PubChem BioAssay
VDR inh = inhibitors of human vitamin D receptor | hit rate 0.93% among 400,000 | Potency, µM, for inactives: max response, negative = inhibition, most hits filed as inhibitors | VDR-SRC2-3 peptide fluorescence polarization, 2 h | AID 504847; active = well fitted inhibition curve with a large enough effect; inconclusive = small, poorly fitted or top-dose-only effect, or another doubt; inactive = no such curve, though single readings can be large or run the other way; note: series mostly up to about 120 µM
Target sequence (P11473 whole entry, looked up): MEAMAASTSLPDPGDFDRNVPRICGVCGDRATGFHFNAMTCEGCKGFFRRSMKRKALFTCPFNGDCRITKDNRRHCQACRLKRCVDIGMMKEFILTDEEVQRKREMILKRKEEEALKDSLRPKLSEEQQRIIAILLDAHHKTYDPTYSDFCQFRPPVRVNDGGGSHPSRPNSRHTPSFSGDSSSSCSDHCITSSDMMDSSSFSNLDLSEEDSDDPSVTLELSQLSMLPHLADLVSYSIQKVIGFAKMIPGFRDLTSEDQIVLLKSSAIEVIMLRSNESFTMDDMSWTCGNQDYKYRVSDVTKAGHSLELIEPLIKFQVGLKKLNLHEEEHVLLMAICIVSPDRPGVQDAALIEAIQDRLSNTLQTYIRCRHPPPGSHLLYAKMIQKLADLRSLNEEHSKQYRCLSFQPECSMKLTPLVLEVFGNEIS
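FP read-out; VDR + SRC2-3 coactivator peptide; 23 nl compound by pintool; 2 h RT incubation; reagents held at 4 deg C, protected from light.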
* hit, by the source's call; & = joins results of further samples. % is set by controls: 0 for no effect and ±100 for the full control effect; potency is the fitted concentration of half-maximal effect. Only part of the results is shown; rates above refer to the full screens.

Results for CCCS(=O)(=O)c1ccc(COC(=O)Cc2ccc([N+](=O)[O-])cc2)cc1 ?
VDR inh: -22%

Results for O=C(O)c1ccc(/C=N/Nc2nc3ccccc3[nH]2)cc1 ?
VDR inh: -2%

Results for COc1ccccc1S(=O)(=O)Cc1ccc(C(=O)NCCN2CCCCCC2)o1 ?
VDR inh: 10%

How did COc1ccc(Cl)cc1NC(=O)NCc1ccco1 do in these assays?
VDR inh: -8%

Results for CCCc1cc(C(=O)Nc2c(C)nn(Cc3ccc(Cl)c(Cl)c3)c2C)no1 ?
VDR inh: 0%

How did COc1ccc(SCCN2CC[C@@H](C)CCC2=O)cc1 do in these assays?
VDR inh: -4%

Results for CCCn1c(=O)c2ccccc2n2c(SCC(=O)N3CCc4ccccc4C3)nnc12 ?
VDR inh: 6%

How did Cc1cccc(C)c1OCC(=O)Nc1nonc1-c1ccc(Br)cc1 do in these assays?
VDR inh: 24%

What do the screens show for `O=C(CCN1C(=O)c2ccccc2C1=O)NNC(=O)c1ccc(Cl)cc1Cl`?
VDR inh: 1%

Results for COC(=O)C[C@H]1c2cc(C(F)(F)F)ccc2S(=O)(=O)N1c1ccc(N(C)C)cc1 ?
VDR inh: -9%

How did CCOc1ccccc1NC(=O)c1ccc2oc(=O)c(S(=O)(=O)c3ccc(F)cc3)cc2c1 do in these assays?
VDR inh: -5%

Results for COc1ccc(NC(=O)Nc2ccc3c(c2)C(=O)N([C@@H](C)CO)C[C@@H](C)[C@@H](CN(C)S(=O)(=O)c2cccs2)O3)cc1 ?
VDR inh: 15%

What do the screens show for `Cc1cc(C(=O)N/N=C/c2cn[nH]c2-c2ccccc2)cs1`?
VDR inh: 2%

Results for c1ccc(-n2cnnc2SCc2cn3ccsc3n2)cc1 ?
VDR inh: 8%

Results for Cc1ccc(N2CC(NC(=O)c3ccc(S(=O)(=O)N4CCCCC4)cc3)CC2=O)cc1 (centres undefined) ?
VDR inh: 4%

What do the screens show for `COc1ccc(-n2c(=O)c(-c3cn(C)c4ccccc34)nc3cncnc32)cc1`?
VDR inh: -17%

How did CC(C)CCNC(=O)CN(Cc1ccco1)C(=O)CCC(=O)Nc1nccs1 do in these assays?
VDR inh: 6%

What do the screens show for `O=C(COc1ccc(Br)cc1Cl)NC1CCN(Cc2ccccc2)CC1`?
VDR inh: 0%

How did O=C(NCc1ccc(F)cc1)c1cc(S(=O)(=O)N2CCOCC2)ccc1F do in these assays?
VDR inh: 19%

What do the screens show for `COCCn1c(=O)c(-c2ccc(F)cc2)nc2cnc(Oc3cccc(Cl)c3)nc21`?
VDR inh: 4%

Ordered by length of the SMILES (descending): some entries from above.
How did CCOc1ccccc1NC(=O)c1ccc2oc(=O)c(S(=O)(=O)c3ccc(F)cc3)cc2c1 do in these assays?
VDR inh: -5%

What do the screens show for `COCCn1c(=O)c(-c2ccc(F)cc2)nc2cnc(Oc3cccc(Cl)c3)nc21`?
VDR inh: 4%

How did CC(C)CCNC(=O)CN(Cc1ccco1)C(=O)CCC(=O)Nc1nccs1 do in these assays?
VDR inh: 6%

New compounds follow.
Results for O=C(Nc1ccc(S(=O)(=O)N2CCCC2)cc1)c1ccc2c(=O)n3c(nc2c1)CCCCC3 ?
VDR inh: 10%

What do the screens show for `NCCCC[C@H]1CNC(=S)N1CCc1cccc(F)c1`?
VDR inh: 12%

How did CCOc1cc(CNCc2ccc(C(=O)O)cc2)ccc1OC do in these assays?
VDR inh: 14%

Results for CCCOc1ccc(C2c3c(-c4c(C)cc(C)cc4O)n[nH]c3C(=O)N2CCO)cc1 (centres undefined) ?
VDR inh: 5%

Results for COc1ccc(CNC(=O)C(=O)NCC2OCCN2S(=O)(=O)c2ccc(C)cc2)cc1 (centres undefined) ?
VDR inh: 7%

Results for Nc1nnc(SCC(=O)NC2CCCCCCC2)s1 ?
VDR inh: -4%

Results for CCOc1ccccc1-c1nc(-c2ccc(NC(=O)Cc3ccc(OC)cc3)cc2)no1 ?
VDR inh: 13%

Results for O=C(Nc1cccn2ncnc12)C(Cl)Cl ?
VDR inh: 2%

What do the screens show for `COC(=O)c1ccccc1Oc1ccc(NC(=O)c2ccco2)cc1`?
VDR inh: -8%

What do the screens show for `COc1cc(NC(=O)c2ccc(-c3cccc([N+](=O)[O-])c3)o2)ccc1NC(=O)C(C)C`?
VDR inh: -3%

Quoted at random: 3 entries already listed.
What do the screens show for `NCCCC[C@H]1CNC(=S)N1CCc1cccc(F)c1`?
VDR inh: 12%

Results for O=C(Nc1cccn2ncnc12)C(Cl)Cl ?
VDR inh: 2%

How did CCOc1cc(CNCc2ccc(C(=O)O)cc2)ccc1OC do in these assays?
VDR inh: 14%

(continued)
How did CCCOC(=O)NCCCN(C)C do in these assays?
VDR inh: -2%

Results for COc1ccc(N2CC(C(=O)Nc3cccc(S(=O)(=O)N4CCCC4)c3)CC2=O)c(OC)c1 (centres undefined) ?
VDR inh: -9%

How did CCCc1cc(-c2n[nH]c(C)c2-c2ccc(C(=O)OCC)o2)c(O)cc1O do in these assays?
VDR inh: -5%

How did Cc1cc(C(=O)CN2c3cccc4cccc(c34)S2(=O)=O)c(C)n1C do in these assays?
VDR inh: 7%

How did COc1cc(C(=O)Nc2nnc(C(C)(C)C)s2)c([N+](=O)[O-])cc1OC do in these assays?
VDR inh: -16%

What do the screens show for `O=C(c1ccccc1Cl)N1CCN(S(=O)(=O)c2cccs2)CC1`?
VDR inh: -3%

What do the screens show for `CC(/C=N/NC(=O)c1nnn(-c2nonc2N)c1C)=C\c1ccccc1`?
VDR inh: -8%

Results for Cc1ccc2[nH]c(=O)c(CN(CCN3CCOCC3)C(=O)Nc3ccccc3F)cc2c1 ?
VDR inh: -6%

What do the screens show for `Oc1ccc(NC(=S)Nc2ccc(F)cc2)cc1`?
VDR inh: -18%

Results for COc1ccccc1CNc1ncncc1-c1ccccc1C ?
VDR inh: -9%

What do the screens show for `CS(=O)(=O)N1CCC(C(=O)NCCC2=CCCCC2)CC1`?
VDR inh: 11%

Results for O=C(Nc1ccnn1C1CCN(C2CCOCC2)CC1)c1cccc(F)c1 ?
VDR inh: 4%

How did C=CCNc1nc(Nc2ccc([N+](=O)[O-])cc2)nc(OC)n1 do in these assays?
VDR inh: -2%

Results for CC(C)(C)NC(=O)CN(Cc1cccs1)C(=O)C1COc2ccccc2O1 (centres undefined) ?
VDR inh: 3%

Results for CN(C)Cc1c(C#N)c2ccccc2n1C ?
VDR inh: 10%

Results for COc1ccc(Cl)cc1NC(=S)NCc1ccco1 ?
VDR inh: 9%

Results for CC(C)CN(C(=O)COC(=O)c1cc(=O)[nH]c2ccccc12)c1c(N)n(Cc2ccccc2)c(=O)[nH]c1=O ?
VDR inh: -3%

Results for COc1ccc(C(C2C(=O)CC(C)(C)CC2=O)C2C(=O)CC(C)(C)CC2=O)cc1CO ?
VDR inh: inconclusive

Results for Cc1cc(NC(=S)Nc2cccnc2)ccc1Br ?
VDR inh: 0%

What do the screens show for `c1ccc(N=Nc2cn[nH]c2-c2ccco2)cc1`?
VDR inh: 4%

The last 4 compounds of the part above come first, to join the parts.
Results for CC(C)CN(C(=O)COC(=O)c1cc(=O)[nH]c2ccccc12)c1c(N)n(Cc2ccccc2)c(=O)[nH]c1=O ?
VDR inh: -3%

Results for COc1ccc(C(C2C(=O)CC(C)(C)CC2=O)C2C(=O)CC(C)(C)CC2=O)cc1CO ?
VDR inh: inconclusive

Results for Cc1cc(NC(=S)Nc2cccnc2)ccc1Br ?
VDR inh: 0%

What do the screens show for `c1ccc(N=Nc2cn[nH]c2-c2ccco2)cc1`?
VDR inh: 4%

Results for COc1ccc(OC)c(S(=O)(=O)Nc2ccc3c(c2)n(C)c(=O)n3C)c1 ?
VDR inh: 25%&12%

Results for COc1ccccc1C(=O)N/C(=C/c1ccc2c(c1)OCO2)C(=O)Nc1ccc(C(=O)O)cc1 ?
VDR inh: 6%

What do the screens show for `CC(=O)Nc1c(OC(C)=O)ccc2c(C)cc(=O)oc12`?
VDR inh: -3%

Results for N#Cc1c(-c2ccccc2)oc(=O)c2ccccc12 ?
VDR inh: 3%

What do the screens show for `Cc1nc2scc(-c3cccs3)c2c(=O)n1CC(=O)O`?
VDR inh: 11%

Results for CCOC(=O)C1=C(COC(=O)c2cccc(Br)c2)NC(=O)NC1C (centres undefined) ?
VDR inh: 1%

How did Cc1cccc(N2CCN(C(=O)COc3ccc4c(c3)CCC4)CC2C)c1 (centres undefined) do in these assays?
VDR inh: 3%

How did Cc1ccc(S(=O)(=O)N(C)C)cc1NC(=S)Nc1ccc2cn[nH]c2c1 do in these assays?
VDR inh: -3%

How did CN(C)c1ccc(/C=c2\sc3n(c2=O)CCCN=3)cc1 do in these assays?
VDR inh: 1%

Results for Cc1ccc(C(=O)O)cc1NC(=S)NC(=O)c1ccc(COc2ccccc2)cc1 ?
VDR inh: -3%

How did O=C(c1ccncc1)N1CCC2(CCCN(c3ccncc3)C2)CC1 do in these assays?
VDR inh: -2%

What do the screens show for `O=C(NCc1ccco1)c1ccccc1Nc1ccc(F)cc1`?
VDR inh: 1%

What do the screens show for `COc1ccc(CN2CCCCC2C)cc1OC` (centres undefined)?
VDR inh: -2%

How did Cc1cc(C)cc(NC(=O)CSc2c(C(C)C)cnc3c2c(=O)n(C)c(=O)n3C)c1 do in these assays?
VDR inh: 0%

How did COc1ccc(C2C(=O)N(C3CCCCCC3)CC(=O)N2CCc2ccc(Cl)cc2)cc1OC (centres undefined) do in these assays?
VDR inh: -9%

What do the screens show for `Cc1ccc(N2C(=O)C(CN3CCCCC3)C2c2ccccc2)cc1` (centres undefined)?
VDR inh: -4%

How did Cc1c(C=O)c2ccccn2c1C(=O)c1ccncc1 do in these assays?
VDR inh: 0%

How did CC(=O)Nc1ccc(NS(=O)(=O)c2c(C(=O)N3CCC(C)CC3)c(C)n(C)c2C)cc1 do in these assays?
VDR inh: -4%

How did CC(C)(C)CC(=O)NC(=S)NCCc1ccccc1 do in these assays?
VDR inh: 0%

What do the screens show for `CCOc1ccc(NC(=O)CSc2nnc(CCNC(=O)c3ccc(OC)cc3)n2C)cc1`?
VDR inh: -7%

Results for O=[N+]([O-])c1ccc(O)c(NC(=S)Nc2ccccc2)c1 ?
VDR inh: inconclusive

What do the screens show for `CC(=O)N[C@@H](C)C(=O)N1CCC(n2nccc2NC(=O)CCCc2ccccc2)CC1`?
VDR inh: 10%

Results for CC(C)(Oc1ccc(CCNC(=O)c2ccc(Cl)cc2)cc1)C(=O)O ?
VDR inh: 5%&0%&-5%

How did CC(C)(C)OC(=O)N1CCC(C(=O)Nc2cccc(C(=O)N3CCCC3)c2)CC1 do in these assays?
VDR inh: -8%

How did Cc1ccc(C2NC(=O)c3ccccc3N2)c(C)c1 (centres undefined) do in these assays?
VDR inh: -15%

What do the screens show for `Cc1cc(C)nc(N2CCCC(C(=O)Nc3cccc(Cl)c3)C2)n1` (centres undefined)?
VDR inh: -11%

What do the screens show for `O=C(COc1ccc2c(c1)oc(=O)c1ccccc12)N[C@@H](Cc1ccccc1)C(=O)O`?
VDR inh: -19%

How did Cc1nc2ccc(NC(=O)N3CCOCC3)cc2s1 do in these assays?
VDR inh: 3%

What do the screens show for `COc1ccc(OCCCC(=O)OCC(=O)c2ccc3c(c2)NC(=O)CO3)cc1`?
VDR inh: -6%

What do the screens show for `CCOC(=O)CSCc1nc(-c2ccc(Cl)cc2)oc1C`?
VDR inh: -13%

What do the screens show for `COc1ccc(-c2nc3ccccc3nc2-c2ccc(OC)cc2)cc1`?
VDR inh: 1%

How did Cc1cc(C)c(NC(=O)COC(=O)COc2ccc3c(C)cc(=O)oc3c2)c(Cl)c1 do in these assays?
VDR inh: 0%

How did CC1=C(c2ccc(C)cc2)S(=O)(=O)NC1=NCc1cccc(F)c1 do in these assays?
VDR inh: 8%

Results for Cc1ccc(S(=O)(=O)N2CCOCC2)cc1NC(=O)C1=NN(c2ccccc2)C(=O)CC1 ?
VDR inh: -1%

What do the screens show for `N=C(N)SCc1nc2ccccn2c1Br`?
VDR inh: -14%

How did CCSc1cc(N2CCCC2)nc(-c2ccc(Cl)cc2)n1 do in these assays?
VDR inh: -9%

Results for COC(=O)C(C)N(C#N)c1nc(C)nc(C)n1 (centres undefined) ?
VDR inh: -3%

What do the screens show for `O=c1[nH]nc2n1CCCCC2`?
VDR inh: -2%

Results for O=C(CN1CCN(c2ccccc2O)CC1)Nc1cc(S(=O)(=O)N2CCCC2)ccc1Cl ?
VDR inh: 6%

What do the screens show for `CCOCCCn1c(SCC(=O)Nc2ccc(F)cc2)nc2c(sc3ccccc32)c1=O`?
VDR inh: -1%

What do the screens show for `CCOCCCNC(=O)c1cn(CC(C)C)c(=O)c2cc(OC)c(OC)cc12`?
VDR inh: 7%

What do the screens show for `O=C(c1cccc(C(F)(F)F)c1)C1CCCN(C(=O)Cn2cncn2)C1` (centres undefined)?
VDR inh: -16%

How did CC1=NN(C(=O)COc2ccccc2)C(O)(c2cccnc2)C1 (centres undefined) do in these assays?
VDR inh: -3%

Results for CS(=O)(=O)Nc1cccc(-c2ccc3ncnc(Nc4ccc(F)cc4)c3c2)c1 ?
VDR inh: 3%

Results for COc1ccc(N2C(=S)NC3N2C(=S)NC3(C)c2ccccc2)cc1 (centres undefined) ?
VDR inh: 5%

What do the screens show for `CCNC(=O)c1ccc(-n2c(-c3ccccc3)cc3c2CCCCC3)cc1`?
VDR inh: -8%

What do the screens show for `COc1ccccc1NC(=O)/C(=C/c1cccs1)NC(=O)c1ccco1`?
VDR inh: 0%

What do the screens show for `O=C(O)c1cn(Cc2ccccc2)nc1-c1cccnc1`?
VDR inh: 4%

What do the screens show for `Cc1cc(N=Nc2ccccc2C(=O)O)c(C)c(C)c1O`?
VDR inh: -38%

What do the screens show for `COc1ccc(/C=C/C(=O)Nc2nc3n(n2)C(c2ccccc2)C=C(c2ccccc2)N3)cc1` (centres undefined)?
VDR inh: -11%

How did CCC1(C)Cc2[nH]c(=O)c(C#N)cc2CO1 (centres undefined) do in these assays?
VDR inh: -6%

What do the screens show for `CC1(C)COC(c2cccc(C3=NC(C)(C)CO3)n2)=N1`?
VDR inh: -12%
